KCNQ2 inh: KCNQ2 potassium channel inhibitors, primary screen, cell-based, CHO-K1, FluxOR thallium flux, B-score (AID 2156); 1.1% of 310,000 active; B-score at 10 µM; 20 min; stronger effect = lower value; only compounds with negative scores are shown here; some inactives read as strong as hits;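 active = fluorescence ratio B-score at most minus 3 library SDs, with starting brightness B-score within 2 library SDs, cut at about -5.5 in these data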
Target sequence (O88943 whole entry, looked up): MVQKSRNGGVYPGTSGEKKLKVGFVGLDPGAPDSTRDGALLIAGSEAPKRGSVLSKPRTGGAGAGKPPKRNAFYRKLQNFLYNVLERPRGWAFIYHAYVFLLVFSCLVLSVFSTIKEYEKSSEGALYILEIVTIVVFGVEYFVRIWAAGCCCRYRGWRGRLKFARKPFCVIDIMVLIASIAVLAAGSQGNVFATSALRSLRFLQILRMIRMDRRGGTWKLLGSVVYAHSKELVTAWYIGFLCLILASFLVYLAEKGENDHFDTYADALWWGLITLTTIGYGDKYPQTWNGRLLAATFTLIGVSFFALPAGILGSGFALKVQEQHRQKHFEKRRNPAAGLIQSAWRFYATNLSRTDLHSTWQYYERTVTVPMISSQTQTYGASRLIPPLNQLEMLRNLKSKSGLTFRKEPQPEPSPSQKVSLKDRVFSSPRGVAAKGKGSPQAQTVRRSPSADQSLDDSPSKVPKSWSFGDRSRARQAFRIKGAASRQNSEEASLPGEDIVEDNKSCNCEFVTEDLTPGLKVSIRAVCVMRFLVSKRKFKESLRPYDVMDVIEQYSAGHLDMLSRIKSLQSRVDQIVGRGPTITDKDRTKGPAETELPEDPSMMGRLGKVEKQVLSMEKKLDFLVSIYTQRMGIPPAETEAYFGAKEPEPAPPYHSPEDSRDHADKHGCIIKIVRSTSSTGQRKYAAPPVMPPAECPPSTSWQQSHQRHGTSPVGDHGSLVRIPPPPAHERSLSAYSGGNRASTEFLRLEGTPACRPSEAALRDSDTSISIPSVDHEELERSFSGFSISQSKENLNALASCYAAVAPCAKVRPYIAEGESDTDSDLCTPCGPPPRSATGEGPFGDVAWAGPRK
KCNQ2 inh baseline: also measured in KCNQ2 inh; calls as there; B-score; measured here: initial fluorescence intensity artifact check;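 brightness before thallium and not channel activity; 0 = typical well and far values either way flag optical interference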
* = called active by the depositor; i = inactive.

The first 2 compounds, to show the layout:
mol | KCNQ2 inh | KCNQ2 inh baseline
O=C(O)C(Cc1c[nH]c2ccccc12)N1C(=O)C2C3c4ccccc4C(c4ccccc43)C2C1=O (stereo unspecified) | i | -3.19
COc1ccc(Br)c2c1C(=O)CC2 | i | -0.36

The listing, from the first entry:
mol | KCNQ2 inh | KCNQ2 inh baseline
O=C(O)C(Cc1c[nH]c2ccccc12)N1C(=O)C2C3c4ccccc4C(c4ccccc43)C2C1=O (stereo unspecified) | i | -3.19
COc1ccc(Br)c2c1C(=O)CC2 | i | -0.36
COc1ccccc1N(C)S(=O)(=O)c1ccc(Cl)c(C(=O)OCc2c(C)noc2C)c1 | i | 0.2
CCOP(=O)(c1ccccc1)c1nc(-c2ccccc2Cl)oc1N1CCCCC1 (stereo unspecified) | -5.61* | -0.74*
CCn1c(SCc2ccc(Cl)cc2)nnc1-c1ccccc1 | i | -0.06
Fc1ccc(-c2csc(/C=C/c3ccc4c(c3)OCO4)n2)cc1 | i | 0.03
CN(Cc1cccs1)C(=O)/C=C/c1ccccc1[N+](=O)[O-] | i | -0.15
CCc1cc2c(=O)[nH]c(COC)nc2s1 | i | 2.42
CC(NC(=O)COC(=O)c1ccc(N(C)C)cc1)c1ccccc1 (stereo unspecified) | i | 1.02
CC(c1cc2ccccc2s1)N(O)C(N)=O (stereo unspecified) | i | -0.19
COc1cc(S(=O)(=O)NC2CCCCC2C)ccc1F (stereo unspecified) | i | 0.01
Cc1cccc(Nc2nc(NCc3ccco3)nc(N3CCOCC3)n2)c1 | i | 1.13
Cc1ccccc1C(C(=O)NCc1ccco1)N(CC1CCCO1)C(=O)Cn1nnc2ccccc21 (stereo unspecified) | i | 1.15
Cc1ccc(-c2nc3cccnc3s2)cc1NS(=O)(=O)c1cccs1 | i | -0.86
O=S(=O)(NCC(c1cccnc1)N1CCc2ccccc2C1)c1ccccc1 (stereo unspecified) | i | 1.63
COC(=O)c1ccc(CSc2nnc3n(Cc4ccccc4OC)c(=O)c4ccccc4n23)o1 | i | 0.25
COc1cc2c(cc1C1NC(=S)NC(C)=C1C(N)=O)CCCC2 (stereo unspecified) | i | 0.4
COc1ccc(C2CC(c3ccccc3)=NN2C(=O)COC(=O)C2CC2)cc1 (stereo unspecified) | i | 1.96
CCC(C(=O)NCCc1c[nH]c2ccc(C)cc12)c1ccccc1 (stereo unspecified) | i | -0.83
CCOC(=O)COc1ccc(Br)cc1C1NC(=O)NC(C)=C1C(=O)NCc1ccccc1 (stereo unspecified) | i | 1.89
O=S(=O)(NCCc1ccc(Cl)cc1)c1cccc2cccnc12 | i | 0.67
Nc1ncnc(Oc2cccc3cccnc23)c1[N+](=O)[O-] | i | 2.76
C=CCN1c2ccccc2[C@]23C[C@@H](C(=O)OC)N(C(=O)c4ccc(Br)cc4)C2=NC(C(=O)OC)=C(C(=O)OC)[C@H]13 | i | -0.05
CCN1C(=O)[C@H]2[C@@H](c3ccc(Cl)cc3)N3C(=O)CN(CCOC)C(=O)[C@@]3(C)[C@H]2C1=O | i | -0.08
O=C(NCc1ccccc1)C(c1ccncc1)N(C(=O)c1csnn1)c1cccc(F)c1 (stereo unspecified) | i | 1.11
COc1ccc(N(CC(=O)NN=C2CCN(C)CC2)S(=O)(=O)c2ccc(NC(C)=O)cc2)cc1 | i | 1.24
O=C1CCc2ccc(OCCCCN3CCN(c4cccc(Cl)c4Cl)CC3)cc2N1 | i | 0.22
CCn1c(O)c(N=NC(=O)CNC(=O)/C=C/c2ccco2)c2ccccc21 | i | -0.37
Cc1cc(Cl)c(S(=O)(=O)N2CCCC2)cc1OCC(N)=O | i | 0.07
COc1ccc(NC(=O)CN(C)C(=O)c2cc(-c3ccc(Cl)cc3)nc3ccccc23)cc1 | i | 1.41
Cc1ccc(NC(=O)COc2coc(CN3CCc4ccccc4C3)cc2=O)cc1Cl | i | 0.08
CCC(=O)NCc1c(C)c(C)n(Cc2ccccc2)c1-n1cccc1 | i | 1.91
O=C(C1CC1)N1CCN(C(c2ccccc2)c2ccccc2)CC1 | i | 0.3
Cc1cc(C)cc(NC(=S)N2C3CCCC2CC(NC(=O)C2CC2)C3)c1 (stereo unspecified) | i | 0.6
C[C@@]12CC(=O)NC1N(C(=O)c1ccccc1)C(c1ccccc1OC(=O)c1ccccc1)C2 (stereo partly specified) | i | 0.09
COc1ccc(CN2CCNC(=O)C2CC(=O)NCCCn2cccn2)cc1C (stereo unspecified) | i | -0.23
CCSc1nc(O)cc(=O)[nH]1 | i | 0.45
CNc1ccccc(C(=O)/C=C/c2ccccc2OC)c1=O | i | -0.11
O=S(=O)(Nc1ncccn1)c1ccc(-n2cnnn2)cc1 | i | 0.91
O=C(NC1(C(=O)NC2CCCCC2)CCCCC1)c1ccc2c(c1)OCO2 | i | 2.12

A section of the results above, as a working copy:
mol | KCNQ2 inh | KCNQ2 inh baseline
COc1ccc(NC(=O)CN(C)C(=O)c2cc(-c3ccc(Cl)cc3)nc3ccccc23)cc1 | i | 1.41
Cc1ccc(NC(=O)COc2coc(CN3CCc4ccccc4C3)cc2=O)cc1Cl | i | 0.08
CCC(=O)NCc1c(C)c(C)n(Cc2ccccc2)c1-n1cccc1 | i | 1.91

More records
mol | KCNQ2 inh | KCNQ2 inh baseline
CCOCN(C(=O)Cn1c(CO)nc2ccccc21)c1c(C)cccc1CC | i | -1.46
CCCCN(CCCNC(=O)c1c(C)cc(=O)oc1C)c1ccccc1 | i | 1.22
CCOc1ccccc1C(=O)Nc1cc2c(cc1N1CCCC1)n(CC)c(=O)n2CC | i | 0.47
CCOC(=O)c1c(NC(=O)COc2ccccc2)sc2c1CC(C)(C)NC2(C)C | i | 1.94
O=C(COc1ccccc1F)N1CCc2ccccc2C1 | i | -1.18
O=C(CNc1ccccc1)N/N=C/c1c(O)ccc2ccccc12 | i | 0.8
COc1cc(Br)c(-c2sc(Nc3ccccc3)n[n+]2-c2ccccc2)cc1OC | i | -0.37
COc1ccc(N2CCN(C(=O)Cc3ccc(C)cc3)CC2)cc1 | i | -0.3
CCCCCCCCCCCCCCCC[n+]1cccc(C(=O)N(CC)CC)c1 | i | 25.8
Cc1ccc(C)n1-c1ccc(-c2nnc3n2CCCCC3)s1 | i | -0.53
Cc1cccn2cc(-c3ccccc3)nc12 | i | 0.48
CNc1nc(NC#N)nc(SC)n1 | i | -0.01
COC(=O)CNC(=O)C1CCCN1C(=O)OC(C)(C)C (stereo unspecified) | i | -0.88
OC(Cn1cccn1)c1ccccc1 (stereo unspecified) | i | 0.34
Cc1ccc(N2CC(C(=O)N3CCCCCC3)CC2=O)cc1 (stereo unspecified) | i | 0.37
CCc1ccc2[nH]cc(S(=O)(=O)c3ccc(C)c(C)c3)c(=O)c2c1 | i | 0.96
COc1ccc(NC(=O)CCN2CCN(S(=O)(=O)c3ccc(OC)cc3)CC2)cc1 | i | -0.04
CC1(C)CC(=O)C(C(O)c2ccc([N+](=O)[O-])cc2)C(C)(C)N1 (stereo unspecified) | i | 0.33
Cc1ccc(OCC(=O)OC(C)CN2CCCCC2)cc1 (stereo unspecified) | i | 0.18
CC(=O)C1C(c2ccc(F)cc2)C2C(C)=NN=C2CC1(C)O (stereo unspecified) | i | -0.13
Nc1ccc2c(c1)OC1(CCCC1)O2 | i | 0.01
Cc1cc(NCc2ccccn2)n2c(nc3ccccc32)c1C#N | i | 0.81
COc1cnc(N(C)C)nc1Sc1cccc(Cl)c1 | i | 0.27
O=C1NC(c2ccccc2)=C(c2ccc3ccccc3n2)C(c2ccncc2)N1 (stereo unspecified) | i | 1.53
O=C(NCC(=O)N1CCN(S(=O)(=O)c2cccs2)CC1)c1ccc(Cl)cc1 | i | 0.23
Cn1c2ccccc2c2ncn(Cc3ccc(F)cc3)c(=O)c21 | i | -0.05
CCCCNC(=O)C1CC(c2ccccc2[N+](=O)[O-])=NO1 (stereo unspecified) | i | 4.44
N#CC(=C=[N-])C1=C(C#N)C(c2ccccc2F)C([n+]2ccccc2)C(O)(C2CC2)N1 (stereo unspecified) | i | 0.83
CN(C)c1nc(OCCOC(=O)Nc2ccc(Cl)cc2Cl)nc(N(C)C)n1 | i | -0.59
O=C(CCN1CCN(CCO)CC1)Nc1ccccc1 | i | 0.47
CC(C)N(C)Cc1nnnn1CC(=O)N(C)Cc1ccc(F)cc1 | i | 0.07
COC(=O)C(Cc1cnc(Cl)s1)(C(=O)OC)c1ccc([N+](=O)[O-])cc1[N+](=O)[O-] | i | 0.27
Cc1ccc(S(=O)(=O)N2CCCC2)cc1C(=O)N1CCN(Cc2ccccc2)CC1 | i | 2.03
Nc1c(C(=O)NC2CCCC2)sc2nc(-c3cccs3)ccc12 | i | -1.08
COc1ccc(-c2cn(-c3ccc(C)c(Cl)c3)c(=S)[nH]2)cc1OC | i | -0.03
Cc1ccc(C(C)C)c(OCC(=O)OCc2c(C)noc2C)c1 | i | 0.81
O=C(O)c1cccc(NS(=O)(=O)c2cccc3nsnc23)c1 | i | 0.3
O=S(=O)(Cc1ccccc1Cl)NCCc1ccccc1 | i | -0.06
Cc1ccc(/C=C2\SC(=O)N(CCC(=O)N3CCN(C)CC3)C2=O)cc1 | i | 0.19
COCCCN(Cc1ccccn1)S(=O)(=O)Cc1ccccc1 | i | 4.19
CC(=O)Nc1cc(C(=O)OCC(=O)c2ccc(Cl)cc2Cl)ccc1C | i | 1.25
Cc1ccnc(NS(=O)(=O)c2ccc(N3C(=O)c4c(Cl)c(Cl)c(Cl)c(Cl)c4C3=O)cc2)n1 | i | 1.48
O=C(NC(=S)N1CCOCC1)c1cc2ccccc2o1 | i | -1
c1ccc(-n2ncc3c(NCc4cccnc4)ncnc32)cc1 | i | 0.13
N#Cc1cccnc1N1CCN(C(=O)c2ccco2)CC1 | i | -0.01
CN(CC1CCOCC1)C(=O)CC1C(=O)NCCN1Cc1ccc(Cl)c(F)c1 (stereo unspecified) | i | 0.18
CCN(CC)S(=O)(=O)c1ccc(C(=O)Nc2nnc(COC)o2)cc1 | i | -0.08
COc1ccccc1Cn1c(=O)oc2ccc(C)cc21 | i | 0.35
CN(C)S(=O)(=O)c1cccc(NC(=O)COC(=O)c2cccc(S(=O)(=O)N3CCc4ccccc4C3)c2)c1 | i | 0.06
O=C(NNC1CC(=O)N(c2ccc3c(c2)OCCO3)C1=O)c1ccc(Cl)cc1 (stereo unspecified) | i | -0.01
CCn1c(SCC(=O)Nc2ccccc2N2CCCCC2)nc2c1c(=O)n(C)c(=O)n2C | i | 0.41
CCOc1cc(C2C(C(=O)OC)=CN(Cc3ccc(Cl)cc3)C=C2C(=O)OC)ccc1O | i | 0.91
COC(=O)[C@@H]1C[C@@H]2CC[C@@H](O)C[C@@H]2N1Cc1ccc(N2CCN(C)CC2)cc1 | i | 2.02
Cc1ccc(C(=O)OCC(=O)Nc2ccc3c(c2)OCO3)cc1S(=O)(=O)N1CCOCC1 | i | 0.69
COc1ccc(OC)c(NS(=O)(=O)c2cccc3cccnc23)c1 | i | -0.06
Cc1cnc(C(=O)OCc2c(C)cc(C(C)(C)C)cc2C)cn1 | i | 1.68
c1csc(-c2nnc(N3CCCCCC3)c3ccccc23)c1 | i | 0.07
O=C(Cn1nnc(-c2ccccc2NC(=O)c2cccs2)n1)Nc1ccccc1 | i | -1.23
Cc1ccc(Nc2nc(=O)c3cccnc3s2)c(Br)c1 | i | -0.45
CCOC(=O)c1ccc(-c2c(-c3ccc4c(c3)OCO4)noc2C)cc1F | i | 0.36

Remaining list, next part
mol | KCNQ2 inh | KCNQ2 inh baseline
COc1ccc(N(CC(=O)N/N=C/c2ccc(OC)c(OC)c2)S(=O)(=O)c2ccccc2)cc1 | i | 0.01
CN(C(=O)CSc1nnc(-c2cccnc2)n1-c1ccccc1F)C1CCS(=O)(=O)C1 (stereo unspecified) | i | -1.28
Cc1ccc(NC(=O)c2sccc2SCc2cccc(C(F)(F)F)c2)cc1 | -6.81* | -0.6*
COc1ccccc1NC(=O)CCC(=O)O | i | -0.16
COC(=O)CC(NS(=O)(=O)c1cccs1)c1cccc2ccccc12 (stereo unspecified) | i | 1.67
CCC1(C)Cc2ccccc2-c2nc(NN)[nH]c(=O)c21 (stereo unspecified) | i | -0.01
Cc1ccc(S(=O)(=O)N2CCN(CC(=O)N/N=C\C(Cl)=C\c3ccccc3)CC2)cc1 | i | 0.29
COc1cc(NC(=O)CCC(=O)O)nc(OC)n1 | i | -0.99
CCN(C(=O)COc1cc(=O)n(CC)c2ccccc12)c1cccc(Cl)c1 | i | 0.32
O=C(NCc1n[nH]c(=S)n1-c1ccc(Br)cc1)c1ccc(S(=O)(=O)N2CCCCC2)cc1 | i | 1.36
CCOC(=O)Cn1c(S(=O)(=O)Cc2ccc(F)cc2)nc(-c2ccccc2)c1-c1ccccc1 | i | 0.59
C=CCOc1ccc(C(=O)Nc2ccccc2C(=O)N2CCCC2)cc1 | i | -0.34
O=C(NCc1ccccc1)C1=C[C@@H](c2ccccc2)C[C@@H](OCCCCO)O1 | i | 0.67
COc1ccc(CCN(C)C(=O)C2CCN(Cc3ccccc3)CC2)cc1OC | i | -1.89
Cc1cccc(NCN2C(=O)c3ccncc3C2=O)n1 | i | -0.95
COc1ccc(CNC(=O)C2CCCN2S(=O)(=O)c2ccc(S(=O)(=O)N(C)C)cc2)cc1 (stereo unspecified) | i | 0.02
CCOC(=O)c1c(C)[nH]c(C)c1C(=O)CSc1nnc(-c2ccco2)n1Cc1ccccc1 | i | -0.86
Cc1nnc(SCC(=O)Nc2ccccc2)c2ccccc12 | i | -0.03

Copied from the list.
Reading of `COC(=O)CC(NS(=O)(=O)c1cccs1)c1cccc2ccccc12` (stereo unspecified) under KCNQ2 inh baseline: 1.67
Reading of `CCC1(C)Cc2ccccc2-c2nc(NN)[nH]c(=O)c21` (stereo unspecified) under KCNQ2 inh baseline: -0.01

Not all compounds are listed; rates above refer to the full screens.
